Vaccinia stage: Vaccinia orthopox stage-specific inhibition; AID 1053133; 89,000 compounds, 0.01% hits; activity change (mCherry), % (test concentration not listed); Vaccinia-infected cells, mCherry/Venus stage reporter fluorescence; hits give low values; some inactives read as strong as hits;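 active = mCherry past -33% and 40 or more points under the early reporter, replicates agreeing; inconclusive = past -33% without that gap or agreement; tested in A549 cells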;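 note: scaled between vehicle wells and reference inhibitor wells; 23 nL library stock went into each well; one replicate is shown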
Vaccinia stage Venus: further read-out of Vaccinia stage, marked with its call; activity change (Venus), %; measured here: Venus reporter, other viral stage;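 negative = less Venus signal; first of two replicates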
Starred values were filed as active, the others as inactive; ? = inconclusive; . = not tested or not shown; & = joins results of further samples. Only part of the results is shown (hit frequency here may not be typical).

SMILES	Vaccinia stage	Vaccinia stage Venus
C[C@H](CO)N1C[C@H](C)[C@@H](CN(C)C(=O)Nc2ccc3c(c2)OCO3)Oc2c(NC(=O)C3CCOCC3)cccc2C1=O	15.0	11.0
CC(C)(O)C#Cc1ccc([C@@H]2[C@H]3CN(C(=O)c4cccc(F)c4)CCCCN3[C@H]2CO)cc1	25.7	-1.1
COC(=O)[C@H]1[C@H](CO)[C@H]2Cn3c(ccc(C4=CCCCC4)c3=O)[C@@H]1N2CCc1ccccc1	1.3	4.8
COc1ccc(S(=O)(=O)N[C@@H]2CC[C@H](CCn3cc(-c4ccccc4F)nn3)O[C@H]2CO)cc1	-9.5	-10.8
O=C(C[C@@H]1C[C@H]2c3cc(NC(=O)c4ccc5c(c4)OCO5)ccc3O[C@H]2[C@@H](CO)O1)NCc1ccc(Oc2ccccc2)cc1	-32.6	-23.6
O=C(NCC[C@@H]1CC[C@@H](NS(=O)(=O)c2cccc(F)c2)[C@@H](CO)O1)c1cnccn1	2.9	5.8
O=C(C[C@@H]1CC[C@H]2[C@@H](COC[C@@H](O)CN2CC2CCOCC2)O1)N1CCOCC1	5.9	5.9
C[C@@H]1CN([C@@H](C)CO)C(=O)c2ccccc2-c2ccccc2CO[C@@H]1CN(C)C(=O)c1ccc(F)cc1	11.5	5.9
COc1ccc2c3c([nH]c2c1)[C@H](CO)N(C(C)=O)CC31CN(C(C)=O)C1	5.8	1.0
O=C(C[C@H]1C=C[C@@H](NC(=O)CN2CCOCC2)[C@@H](CO)O1)NCCc1ccncc1	5.6	6.7
C[C@H]1CN([C@@H](C)CO)C(=O)c2cc(C#Cc3ccccc3F)cnc2O[C@@H]1CN(C)C(=O)Cc1cccnc1	-23.9	-27.1
C[C@H](CO)N1C[C@H](C)[C@H](CN(C)Cc2ccncc2)Oc2ccc(NC(=O)Cc3cn(C)c4ccccc34)cc2C1=O	-1.9	-7.6
CO[C@@H]1CN(C)C(=O)c2cc(NC(C)=O)ccc2OC[C@@H](C)N(C(=O)C2CCC2)C[C@@H]1C	3.7	5.5
O=C(O)[C@@H]1[C@@H](CO)[C@@H]2Cn3c(ccc(C4=CCCCC4)c3=O)[C@@H]2N1Cc1ccc2c(c1)OCO2	3.0	-4.0
CC(C)NC(=O)N1[C@H](CO)[C@H]2c3ccccc3N(C(=O)Nc3ccc(F)cc3)C[C@H]21	19.4	3.4
COc1ccc(CNC(=O)C[C@H]2C[C@@H]3c4cc(NS(=O)(=O)c5ccc(F)cc5)ccc4O[C@@H]3[C@@H](CO)O2)cc1	-6.3	-3.4
COc1ccc(S(=O)(=O)N(C)C[C@H]2Oc3ccc(NS(=O)(=O)c4c(C)noc4C)cc3C(=O)N([C@H](C)CO)C[C@H]2C)cc1	0.4	-2.4
C[C@H]1CN([C@@H](C)CO)S(=O)(=O)c2ccc(C#CC3CC3)cc2O[C@H]1CN(C)C	4.9	-9.4
C[C@@H]1CN([C@@H](C)CO)C(=O)c2cc(NC(=O)CCN3CCOCC3)ccc2O[C@H]1CN(C)C(=O)Nc1cccc2ccccc12	12.1	8.7
C[C@H](CO)N1C[C@H](C)[C@H](CN(C)C(=O)Nc2cc(F)ccc2F)Oc2cc(-c3cccc(F)c3)ccc2S1(=O)=O	-18.5	-7.9
O=C(c1cccc(F)c1)N1CCCCN2[C@H](C1)[C@H](c1ccc(-c3cccnc3)cc1)[C@@H]2CO	15.9	-0.8
O=C(C1CCC1)N1CC[C@@H]2[C@H](CO)Nc3ccc(Br)cc3[C@@H]21	-22.6	-9.6
CCCNC(=O)[C@@H]1[C@@H](CO)[C@@H]2Cn3c(ccc(-c4cccc(OC)c4)c3=O)[C@@H]2N1C	5.7	2.2
COCC(=O)N1[C@H](CO)[C@H](c2ccccc2-c2ccccc2)[C@@H]1C#N	-17.4	-12.0
C[C@@H]1CN([C@@H](C)CO)C(=O)c2cc(NC(=O)c3ccccc3)ccc2O[C@@H](C)CCCCO[C@H]1CN(C)Cc1ccc2c(c1)OCO2	?	.
C[C@H](CO)N1C[C@H](C)[C@H](CN(C)S(=O)(=O)c2ccc(Cl)cc2)Oc2ccc(NC(=O)Nc3ccc4c(c3)OCO4)cc2CC1=O	?	.
N#C[C@@H]1[C@H](c2ccccc2-c2cccc(F)c2)[C@H](CO)N1C(=O)Cc1cccnc1	-5.3	-2.6
CCCC(=O)Nc1ccc2c(c1)C(=O)N(C)C[C@@H](OC)[C@H](C)CN(C(=O)CN(C)C)[C@H](C)CO2	-4.3	-2.0
COc1ccc(-c2cnc3c(c2)C(=O)N([C@@H](C)CO)C[C@H](C)[C@H](CN(C)C(=O)C2CCC2)O3)cc1	-4.4	-1.1
N#C[C@@H]1[C@@H](c2ccccc2-c2ccccc2)[C@@H](CO)N1C(=O)NC1CCCCC1	-20.9	3.2
O=C(C[C@H]1C=C[C@H](NC(=O)c2ccc(F)cc2)[C@H](CO)O1)NCCc1ccncc1	1.3	8.9
C[C@@H]1CN([C@@H](C)CO)C(=O)c2ccccc2-c2ccccc2CO[C@@H]1CN(C)C(=O)[C@@H]1CCCN1C	2.9	2.1
CC(C)NC(=O)N[C@H]1C[C@@H]2O[C@@H](CO)CC[C@@H]2O[C@@H]1CCc1ccc(-c2ccccc2F)cc1	-7.1	-3.5
COc1ccc(S(=O)(=O)Nc2ccc3c(c2)C(=O)N([C@H](C)CO)C[C@@H](C)[C@H](CN(C)C(=O)NC2CCCCC2)OCCCC[C@H](C)O3)cc1	-18.0	-13.6
CO[C@@H]1CN(C)C(=O)c2ccc(NS(C)(=O)=O)cc2OC[C@H](C)N(C(=O)NC(C)C)C[C@H]1C	1.8	0.1
COc1ccc2c3c([nH]c2c1)[C@@H](CO)N(C(=O)c1cccnc1)CC31CCN(C(=O)CN(C)C)CC1	-6.5	-10.8
O=C(C[C@H]1C[C@@H]2c3cc(NC(=O)Nc4ccccc4)ccc3O[C@@H]2[C@@H](CO)O1)NC1CCCC1	0.4	-3.4
C[C@H]1CN([C@@H](C)CO)C(=O)c2cc(C#Cc3cccnc3)cnc2O[C@@H]1CN(C)Cc1cccnc1	16.7	4.3
C[C@@H]1CN([C@H](C)CO)C(=O)CCCn2cc(nn2)CO[C@H]1CN(C)C(=O)c1ccccc1	8.3	1.8
CO[C@@H]1CN(C)C(=O)c2ccc(NC(=O)c3cc(C)on3)cc2OC[C@@H](C)N(S(=O)(=O)c2cccc(Cl)c2)C[C@H]1C	?	.
C[C@@H]1CCCCO[C@H](CN(C)C(=O)c2ccccc2)[C@H](C)CN([C@@H](C)CO)C(=O)c2cc(NS(=O)(=O)c3cccs3)ccc2O1	-7.2	-15.2
C[C@@H]1CCCCO[C@@H](CN(C)C(=O)CCCN(C)C)[C@H](C)CN([C@@H](C)CO)C(=O)c2cc(NS(=O)(=O)c3ccc(Cl)cc3)ccc2O1	17.5	10.2
COc1ccccc1NC(=O)N1CC[C@@H]2[C@H]1c1cc(-c3ccccc3)ccc1N(C)[C@H]2CO	?	.
O=C(Nc1ccccc1)Nc1ccc2c(c1)[C@H]1C[C@@H](CC(=O)N3CCCCC3)O[C@@H](CO)[C@H]1O2	7.4	7.6
C[C@H](CO)N1C[C@H](C)[C@H](CN(C)C(=O)Nc2ccccc2)Oc2ccc(NC(=O)CCCCCC(=O)Nc3ccccc3N)cc2C1=O	-1.5	-1.2
CCC(=O)N1C[C@H](C)[C@@H](OC)CN(C)C(=O)c2cc(NC(=O)C3CCCCC3)ccc2OC[C@H]1C	-8.1	-9.2
C[C@H](CO)N1C[C@H](C)[C@@H](CN(C)Cc2ccc(-c3ccccc3)cc2)Oc2c(NC(=O)c3cnccn3)cccc2C1=O	-24.1	-16.4
C[C@H]1CCCCO[C@H](CN(C)C(=O)Nc2ccc(C(F)(F)F)cc2)[C@@H](C)CN([C@@H](C)CO)C(=O)c2cc(NS(=O)(=O)c3ccc(Cl)cc3)ccc2O1	-30.4	-21.0
CN(C)CCCNC(=O)C[C@@H]1CC[C@@H]2[C@H](COc3ccc(NC(=O)C4CCC4)cc3C(=O)N2C)O1	12.9	7.3
C[C@@H]1CN([C@@H](C)CO)S(=O)(=O)c2ccc(Br)cc2O[C@@H]1CN(C)Cc1ccc(C(=O)O)cc1	10.1	4.5
CN1[C@H](CO)[C@@H]2c3ccccc3N(C(=O)C3CCOCC3)C[C@@H]21	9.7	7.2
C[C@H]1CN([C@@H](C)CO)C(=O)c2cc(-c3cccc(F)c3)cnc2O[C@@H]1CN(C)Cc1ccccc1	-8.5	-7.8
COc1ccccc1S(=O)(=O)N[C@@H]1CC[C@H](CCn2cc(C3CC3)nn2)O[C@H]1CO	-8.7	-6.6
C[C@H](CO)N1C[C@H](C)[C@H](CN(C)Cc2ccncc2)Oc2ncc(C#CCN(C)C)cc2C1=O	12.3&9.0	10.8&12.7
O=C(C[C@H]1CC[C@@H](NC(=O)C2CCC2)[C@@H](CO)O1)NCc1ccccc1Cl	9.1	5.5
COc1ccccc1S(=O)(=O)N(C)C[C@@H]1Oc2cc(/C=C/c3ccccc3)ccc2S(=O)(=O)N([C@@H](C)CO)C[C@@H]1C	-2.6	2.9
CN1c2ccc(-c3cccc(C#N)c3)cc2[C@@H]2[C@@H](CCN2C(=O)C2CC2)[C@@H]1CO	-32.2	-33.2
C/C=C/c1cnc2c(c1)C(=O)N([C@@H](C)CO)C[C@@H](C)[C@@H](CN(C)C(=O)c1ccc3c(c1)OCO3)O2	5.8	1.4
C[C@@H]1CCCCO[C@@H](CN(C)S(=O)(=O)c2cn(C)cn2)[C@H](C)CN([C@@H](C)CO)C(=O)c2cc(NS(=O)(=O)c3ccccc3)ccc2O1	22.1	5.4
C[C@@H]1CCCCO[C@H](CN(C)Cc2ccc(C(=O)O)cc2)[C@@H](C)CN([C@@H](C)CO)C(=O)c2cc(NS(C)(=O)=O)ccc2O1	6.7	-0.8

New compounds follow.
SMILES	Vaccinia stage	Vaccinia stage Venus
COc1ccc(NC(=O)N(C)C[C@@H]2Oc3ccc(NC(=O)Nc4ccccc4)cc3C(=O)N([C@@H](C)CO)C[C@@H]2C)cc1	7.8	1.8
O=C(N[C@H]1CC[C@@H](CC(=O)N2CCOCC2)O[C@H]1CO)c1ccc2c(c1)OCO2	19.6	19.6
COCC(=O)N1C[C@@H]2[C@H](c3ccccc31)[C@H](CO)N2Cc1ccccc1Cl	-10.9	-1.7
CO[C@@H]1CN(C)C(=O)c2cc(NS(C)(=O)=O)ccc2OC[C@H](C)N(CC2CCCCC2)C[C@@H]1C	8.0	9.6
C[C@@H]1CN([C@H](C)CO)C(=O)CCCn2nncc2CO[C@@H]1CN(C)S(=O)(=O)c1ccc(-c2ccccc2)cc1	-15.8	-23.6
CCCC#Cc1cnc2c(c1)C(=O)N([C@H](C)CO)C[C@H](C)[C@@H](CN(C)C(=O)c1cccnc1)O2	23.9	9.4
CO[C@H]1CC[C@@H]2CCOc3c(C#N)cccc3C(=O)N(C)C[C@@H](OC)[C@H](C)C(=O)N(C)C[C@@H]1O2	12.8	7.8
COc1cccc(NC(=O)N[C@@H]2CC[C@@H](CC(=O)N3CCCCC3)O[C@@H]2CO)c1	-4.8	-0.2
CCNC(=O)[C@H]1[C@H](CO)[C@H]2Cn3c(ccc(-c4cccc(OC)c4)c3=O)[C@H]2N1Cc1nccs1	17.8	13.8
C[C@H](O)C#Cc1ccc([C@H]2[C@@H](CO)N3CCCCN(C(=O)c4cccc(F)c4)C[C@@H]23)cc1	17.8	10.3
CC(=O)N1[C@H](C(=O)N2CCc3ccccc3C2)[C@@H](CO)[C@@H]2Cn3c(ccc(-c4cccnc4)c3=O)[C@@H]21	8.4	5.5
COc1ccccc1NC(=O)N[C@@H]1CC[C@H](CCNS(=O)(=O)c2ccccc2)O[C@@H]1CO	-0.4	-5.4

Reformatted with two lines to a compound: ten of the compounds above.
The line under a structure holds: Vaccinia stage	Vaccinia stage Venus
C[C@@H]1CCCCO[C@H](CN(C)Cc2ccc(C(=O)O)cc2)[C@@H](C)CN([C@@H](C)CO)C(=O)c2cc(NS(C)(=O)=O)ccc2O1
    6.7	-0.8
COc1ccc(NC(=O)N(C)C[C@@H]2Oc3ccc(NC(=O)Nc4ccccc4)cc3C(=O)N([C@@H](C)CO)C[C@@H]2C)cc1
    7.8	1.8
O=C(N[C@H]1CC[C@@H](CC(=O)N2CCOCC2)O[C@H]1CO)c1ccc2c(c1)OCO2
    19.6	19.6
COCC(=O)N1C[C@@H]2[C@H](c3ccccc31)[C@H](CO)N2Cc1ccccc1Cl
    -10.9	-1.7
CO[C@@H]1CN(C)C(=O)c2cc(NS(C)(=O)=O)ccc2OC[C@H](C)N(CC2CCCCC2)C[C@@H]1C
    8.0	9.6
C[C@@H]1CN([C@H](C)CO)C(=O)CCCn2nncc2CO[C@@H]1CN(C)S(=O)(=O)c1ccc(-c2ccccc2)cc1
    -15.8	-23.6
CCCC#Cc1cnc2c(c1)C(=O)N([C@H](C)CO)C[C@H](C)[C@@H](CN(C)C(=O)c1cccnc1)O2
    23.9	9.4
CO[C@H]1CC[C@@H]2CCOc3c(C#N)cccc3C(=O)N(C)C[C@@H](OC)[C@H](C)C(=O)N(C)C[C@@H]1O2
    12.8	7.8
COc1cccc(NC(=O)N[C@@H]2CC[C@@H](CC(=O)N3CCCCC3)O[C@@H]2CO)c1
    -4.8	-0.2
CCNC(=O)[C@H]1[C@H](CO)[C@H]2Cn3c(ccc(-c4cccc(OC)c4)c3=O)[C@H]2N1Cc1nccs1
    17.8	13.8

Following part:
SMILES	Vaccinia stage	Vaccinia stage Venus
COc1ccc(NC(=O)Nc2ccc3c(c2)C(=O)N([C@@H](C)CO)C[C@H](C)[C@H](CN(C)Cc2ccc(Oc4ccccc4)cc2)O3)cc1	-13.1	5.3
C[C@@H]1CN([C@@H](C)CO)C(=O)Cc2cc(NC(=O)Nc3ccc(C(F)(F)F)cc3)ccc2O[C@@H]1CN(C)Cc1ccc(Oc2ccccc2)cc1	-16.1	0.3
N#C[C@H]1[C@H](c2ccc(C3=CCCC3)cc2)[C@@H](CO)N1C(=O)c1cccc(F)c1	9.0	19.3
COc1ccc(NC(=O)N(C)C[C@@H]2Oc3ccc(NS(=O)(=O)c4ccccc4)cc3C(=O)N([C@H](C)CO)C[C@H]2C)cc1	17.0	7.3
